Screening results from PubChem.
TRPML1 blocker: human mucolipin-1 channel inhibition | Q9GZU1 | TRPML1-inducible cells, Ca2+ dye fluorescence, FDSS; hits give low values; inhibition of EC80 agonist-evoked calcium signal | activity change, negative = inhibition, % (concentration not given with the values) | 390,000 tested, 0.02% active; in the data active means activity change below about -50%; inconclusive means about -30% to -50%; inactive means above about -30%;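 note: stimulus is agonist 54-4 at its EC80 concentration; % is set by controls: 0 for no effect and ±100 for the full control effect; compound concentration not given in the record; the text of the record puts the active cut at -80%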
Target sequence (Q9GZU1 whole entry, looked up): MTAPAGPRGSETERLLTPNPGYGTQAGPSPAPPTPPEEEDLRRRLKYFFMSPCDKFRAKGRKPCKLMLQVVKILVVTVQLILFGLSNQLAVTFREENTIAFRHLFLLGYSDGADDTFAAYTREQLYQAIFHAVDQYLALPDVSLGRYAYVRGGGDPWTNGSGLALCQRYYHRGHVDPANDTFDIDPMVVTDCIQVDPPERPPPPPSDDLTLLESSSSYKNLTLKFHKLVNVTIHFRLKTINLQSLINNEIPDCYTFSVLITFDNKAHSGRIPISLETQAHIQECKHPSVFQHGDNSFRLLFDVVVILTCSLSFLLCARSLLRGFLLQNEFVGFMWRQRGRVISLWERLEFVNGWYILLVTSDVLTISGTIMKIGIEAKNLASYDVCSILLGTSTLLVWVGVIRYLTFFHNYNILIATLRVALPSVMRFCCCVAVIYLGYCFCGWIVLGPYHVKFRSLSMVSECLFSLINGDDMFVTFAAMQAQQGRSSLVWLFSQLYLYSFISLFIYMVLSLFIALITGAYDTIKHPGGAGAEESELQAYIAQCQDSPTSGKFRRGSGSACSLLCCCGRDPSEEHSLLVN
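Calcium fluorescence in TRPML1-DL cells induced overnight with Tet: a 110 s read after compound pin addition, then a 110 s antagonist read after challenge with 54-4 at 4 uM final (EC80).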
Menin MLL FP FL: displaces fluorescein MLL peptide from human menin; Fluorescence polarization, fluorescein-MLL peptide displacement from menin; FP activity change, % at 61.4 µM; 290,000 tested, under 10 active; AID 1766; inconclusive = falling polarisation curve, or a change in total fluorescence; inactive = total fluorescence flat and polarisation flat or rising; no compound was filed as active; the % refers to the polarisation; negative = inhibition;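 note: % of control where 0% means no effect; inhibitors lower the polarisation; unlabelled MLL peptide was the positive control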
TRPML1 agonist: human mucolipin-1 channel agonism | Q9GZU1 | TRPML1-expressing cells, Ca2+ dye fluorescence, FDSS; host cell line not named in the record; reference of the full effect not given here | activation, % (test concentration not listed) | 410,000 tested, 0.12% active; in the data active = activation above about 50%; inconclusive = about 30% to 50%; inactive = below about 30%; note: 0% is about no effect; the text of the record puts the active cut at 80%
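Tet-induced TRPML1-DL cells, 1,500 per well, cultured overnight, were loaded with a no-wash Ca2+ dye for 45–90 min. Calcium fluorescence was recorded on the FDSS for 110 s after compound addition, before the EC80 agonist (4 uM 54-4) was added.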
Sfp PPTase inh: blocks B. subtilis Sfp PPTase activity | Q9F4F7 | Biochemical Sfp PPTase activity, qHTS | Potency, µM, for the others: max response, negative = inhibition, usual class: inhibitors | 310,000 tested, 3.5% active | AID 1490; active = well fitted inhibition curve with a large enough effect; inconclusive = small, poorly fitted or top-dose-only effect, or another doubt; inactive = no such curve, though single readings can be large or run the other way;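 note: the enzyme is Sfp with the accession as filed and its product quenches rhodamine fluorescence; potency is the fitted concentration of half-maximal effect; 0% = enzyme reaction without inhibitor and -100% = no enzyme wells; top concentration of the series not given in the record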
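Compounds were incubated with enzyme (final 15 nM) for 15 min at room temperature before substrate addition started the reaction. Fluorescence at 525 nm excitation, 598 nm emission was recorded immediately and after 30 minutes.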
ClpP mod: qHTS Assay for Activators of ClpP | ATP-dependent Clp protease proteolytic subunit (Bacillus subtilis (strain 168)), P80244 | purified B. subtilis ClpP, FRET peptide cleavage, 20 min | Potency, µM (highest dose often 57.5 µM), for the others: at the top dose activity change, negative = active | 340,000 tested, 1.9% active; active = well fitted falling curve with a large enough effect; inconclusive = small, poorly fitted or top-dose-only effect; inactive = no such curve, though single readings can be large or run the other way; note: potency is the fitted concentration of half-maximal effect; the source files actives as falling curves though it sought activators and does not explain the sign; nearly all actives have a fitted effect of over 65% in size; many hits overshoot -100%
Target sequence (P80244 whole entry, looked up): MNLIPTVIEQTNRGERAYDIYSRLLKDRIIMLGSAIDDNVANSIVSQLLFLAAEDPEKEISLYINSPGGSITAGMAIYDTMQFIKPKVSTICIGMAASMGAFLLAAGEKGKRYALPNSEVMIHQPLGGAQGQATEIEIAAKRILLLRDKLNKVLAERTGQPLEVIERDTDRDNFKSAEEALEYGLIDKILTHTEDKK
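Buffer: 100 mM Tris/HCl pH8, 100 mM KCl, 0.05% low protease BSA, 2.5% glycerol, 0.01% Tween-20. ClpP 10 microg/mL final; 20 min RT; delta FRET normalized to ADEP and DMSO controls.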
TRPV1 potentiator: enhances activation of the human vanilloid receptor TRPV1; 320,000 tested, 0.02% active; Q8NER1; potentiation, % at 8.33 µM; TRPV1-expressing cells, Fluo-8 calcium influx, capsaicin EC20 potentiation; host cell line not named in the record; control for the full effect not named in the record; active means potentiation above 80%; inconclusive means 30% to 80%; inactive means below 30%; note: 0% is about no effect
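Cells expressing TRPV1 were dye-loaded with Fluo-8 and read kinetically: 10 s baseline, 3 min after compound (agonist portion), then 2 min after EC20 capsaicin (allosteric enhancer portion). Calcium-bound dye fluorescence at 480/520 nm.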
PINK1 expr mod: modulators of PINK1 expression. AID 624263. Potency, µM (series often up to 76.6 µM), for inactives: top-dose activation (PINK1 increase), hits mostly activators. 410,000 tested, 0.2% active. PINK1 immunofluorescence, high-content cytometry, 24 h; active = well fitted activation curve with a large enough effect; inconclusive = small, poorly fitted or top-dose-only effect; inactive = flat fitted curve, though single readings scatter; cell line not stated here;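 note: potency is the fitted concentration of half-maximal effect; % of control where 0% means no effect; nearly all actives have a fitted effect of over 65% in size; a mitochondrial uncoupler was the plate control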
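Fluorescence from anti-PINK1 antibody, together with nuclear and cell stains, was scanned on a laser-scanning cytometer. Before staining, stable-line cells were incubated 24 hours with compounds at 5 concentrations; primary antibody 12 h at 10 degrees C.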
* hit, by the source's call; u = inconclusive; x = no result given; & = joins results of further samples; [ ] = dose if it differs, or a comment.

SMILES	TRPML1 blocker	Menin MLL FP FL	TRPML1 agonist	Sfp PPTase inh	ClpP mod	TRPV1 potentiator	PINK1 expr mod
Cc1ccc(C)c(NS(=O)(=O)c2ccc3c(c2)n(C)c(=O)n3C)c1	-0.7	x	0.6	x	-1.0%	x	-2.1%
CCOC(=O)CSc1nc2cc3c(cc2cc1C#N)OCO3	3.1	2.8	-0.7	6.4%	-14.4%	-0.8	6.6%
Clc1ccccc1OCCn1cnc2ccccc21	23.5	2.3	1.0	1.1%	-1.8%	-3.3	-2.6%[38.3 µM]
O=C(CCCn1c(=O)c2cccn2c2cccnc21)Nc1ccccc1C(F)(F)F	-3.1	x	-0.5	x	u	x	0.2%
O=C(COC(=O)c1ccc([N+](=O)[O-])o1)NC1CCCC1	5.9	x	0.1	x	0.2%	x	-1.1%
COc1ccc(NC2CCCN(C(=O)CCc3scnc3C)C2)cc1 (stereo not drawn)	-14.2	x	0.2	19.0%	-1.7%	-13.0	-1.0%
CCCCc1cc(=O)oc2cc(OCC(=O)Nc3cccnc3)c(Cl)cc12	-0.6	x	0.3	-22.4%	-6.5%	12.4	6.7%
CCOCCCNC(=S)NCCNc1nc2ccc(C)cc2cc1C#N	-0.9	1.1	0.7	-6.4%	x	-9.8	0.9%
COC(=O)N1CCC2(CCCN(C(=O)Nc3ccc(OC)cc3)C2)CC1	x	-7.1	x	11.7%	x	x	1.6%
COc1ccc(C(=O)N2CCC(C(=O)Nc3ccccc3Cl)CC2)cc1	26.8	x	-0.9	x	-1.1%	x	0.0%
CCOC(=O)c1ccc(NC(=O)CSc2nnc(COc3ccccc3)n2C)cc1	20.2	3.4	0.7	7.2%	-0.3%	4.6	1.4%
CCN1CCN(S(=O)(=O)c2c(C)[nH]c(C)c2C(=O)N2CCCCC2)CC1	-0.3	0.0	0.0	12.1%	-1.6%	-6.3	0.7%
O=C(/C=C/c1ccc2ccccc2n1)N1CCN(c2ccccc2)CC1	0.9	4.5	-0.7	-3.6%	x	-17.7	-0.2%
CC(C)(C)c1ccc(-c2cnco2)cc1	-2.4	-1.2	0.0	14.9%	-1.1%	-10.9	4.8%
O=C(Nc1ccc(Br)cc1)c1ccccc1Br	8.0	0.0	1.9	1.3%	2.6%	-14.6	2.6%
COc1ccc(-c2nc3ccccc3o2)cc1NC(=O)c1cc([N+](=O)[O-])ccc1N1CCOCC1	35.5	x	-0.6	x	-1.0%	x	1.2%
COc1cccc(CN2C(=O)c3cccc(N)c3C2=O)c1	23.5	u	5.8	6.1%	-12.1%	0.8	0.6%
O=C(CSc1nnc2scc(-c3ccccc3)n12)Nc1ccc2c(c1)OCCO2	3.6	0.0	1.3	-8.7%	-0.6%	-4.5	2.9%[38.3 µM]
Cc1nnc2n(Cc3ccccc3)c(=O)c3c4c(sc3n12)COC(C)(C)C4	-28.7	1.4	0.9	11.2%	-1.7%	-18.6	0.9%
Cc1ccc2[nH]c(=O)c(CN(CCCN(C)C)C(=O)Nc3ccc(Cl)cc3)cc2c1	3.4	1.1	3.0	17.4%	-11.8%	-13.4	-1.9%[38.3 µM]
Nn1c(SCC(=O)NNC(=O)c2ccccc2)nnc1-c1ccccc1F	-7.3	x	0.6	x	x	3.6	1.7%
CCCCC(=O)Nc1ccc(Br)cn1	-1.5	-2.1	-0.7	-5.1%	0.1%	-27.3	0.7%
Nc1nc(-c2ccccc2)cc(C(F)(F)F)n1	9.5	-0.3	4.1	9.6%	u	-2.6	0.0%[38.3 µM]
COC(=O)[C@@H](NC(=O)O[C@@H]1C(=O)c2ccc(OC)cc2O[C@H]1c1cccc(C(F)(F)F)c1)C(C)C	x	-1.3&4.5	x	14.9%&7.2%	x	-11.3	x
CC(=O)c1cccc(NC(=O)CCC(=O)c2ccc(F)cc2)c1	25.3	6.8	0.5	2.1%	x	-21.5	1.6%
O=S(=O)(Nc1ccc(-c2ccc3nncn3n2)cc1)c1ccc(Cl)s1	-7.5	x	0.5	x	-5.2%	-2.1	0.1%
COc1ccc(C2C3=C(CCCC3=O)Nc3c(-c4ccccc4)c(C)nn32)cc1 (stereo not drawn)	1.2	3.3	1.3	-6.4%	u	-7.1	u
COc1cc2c(cc1OC)N1C(=O)CC(OCC(=O)O)C3C4CC5(CCN5C(=O)C4=O)C2C31 (stereo not drawn)	5.9	-3.7	0.1	-2.4%	x	-11.1	-0.3%
CCOC(=O)N1CCc2c(sc3c2C(=O)NC(c2cc(OC)c(OC)c(OC)c2)N3)C1 (stereo not drawn)	21.5	x	1.3	x	-1.9%	x	3.8%
COCCNCCOc1ccc(C)cc1[N+](=O)[O-]	-12.6	6.2	-0.7	-3.7%	x	-4.9	1.6%
Cc1cccc(NS(=O)(=O)c2ccc(Br)s2)n1	-2.9	4.4	0.6	11.0%	-6.7%	9.8	-2.6%[38.3 µM]
Cc1nnc2ccc(-c3ccc(NS(=O)(=O)c4ccccc4F)cc3)nn12	4.5	x	2.8	x	x	23.7	-0.7%
O=C(COC(=O)Cn1[nH]c(=O)c2ccccc2c1=O)Nc1ccc2c(c1)OCO2	-12.7	0.4	-0.2	-0.4%	-1.8%	2.6	0.9%
O=C(NC(=S)Nc1ccccc1C(=O)O)c1ccc(-c2ccc(Br)cc2)o1	13.9	x	0.1	31.6µM*	4.0%	-20.4	-1.0%
Fc1ccc2nncc(SCc3ccccc3Cl)c2c1	31.3	x	1.8	x	x	x	-1.5%
CCOC(=O)C1(CCOc2ccccc2)CCN(Cc2ccc(C)o2)CC1	-16.3	8.1	-0.5	18.8%	x	-18.2	2.8%
COc1cc(NC(=S)Nc2ccc3c(c2)OCCO3)cc(OC)c1OC	6.6	2.3	-0.8	-0.3%	-2.4%	28.0	3.1%
CC(C)CN1CCN(Cc2cnc(N3CCOCC3)s2)CC1CCO (stereo not drawn)	12.4	-6.6	-0.6	14.8%	x	-3.1	2.5%
COc1nnnc2c1sc1nc(N3CCOCC3)c3c(c12)CC(C)(C)OC3	x	-0.3	x	18.9%	x	2.5	x
Cn1cc(-c2ccc3c(c2)OCO3)c2ccccc21	x	x	-0.9	x	5.2%	x	2.5%
Cc1cccc(NC(=O)CSc2nc(=O)n(Cc3ccccn3)c3c2CCC3)c1C	2.2	x	1.6	x	-13.5%	x	-1.5%
Cc1ccc(CNC(=O)C2CCC(=O)N2Cc2ccccc2Cl)cc1 (stereo not drawn)	15.0	-6.4	2.0	2.8%	0.0%	18.2	-2.1%
CCC(=O)N1c2ccccc2CC1C(=O)NCCN1CCN(c2cc(Cl)ccc2C)CC1 (stereo not drawn)	37.7	x	0.6	x	-1.3%	x	-0.2%
NC(=O)C1CCN(C(=O)c2cc3c(s2)CCCCC3)CC1	15.3	x	1.0	x	0.4%	-12.1	-0.4%
O=C1CN(C(=O)c2cc3ccccc3oc2=O)C(c2ccc(F)cc2)c2cc(Br)ccc2N1 (stereo not drawn)	-1.0	5.1	0.2	u	-7.5%	-32.4	4.4%
COc1ccc(/C=N/N2CCN(Cc3ccccc3)CC2)cc1	x	4.0	x	-3.9%	0.9%	-10.1	2.0%
COc1ccc(/C=C2\Oc3cc(OCC(=O)N4CCC[C@H]4C(=O)O)ccc3C2=O)c(OC)c1OC	-4.8	-6.7	-0.1	12.8%	-1.4%	13.8	2.2%
Oc1c(C(c2ccc(Cl)cc2)N2CCCC2)cc(Cl)c2cccnc12 (stereo not drawn)	-10.4	1.8	-0.2	-69.8%	0.7%	-4.8	13.5%
OC(CN1C=CCc2ccccc21)c1ccc(Cl)cc1Cl (stereo not drawn)	x	x	2.0	x	-15.4%	x	-0.8%
Cc1cc(C(=O)CS(=O)(=O)c2ccc(F)cc2)cc(C)c1O	10.6	0.1	2.5	8.0%	-3.3%	17.2	0.1%
CC(C)c1ccccc1NC(=O)Cn1c(/C=C/c2ccccc2)nc2ccccc21	30.7	-1.1	0.3	7.5%	x	-2.1	3.5%
CCOC(=O)C1C(=O)Nc2nc3ccccc3n2C1C(C)C (stereo not drawn)	4.6	1.4	-0.8	3.1%	-6.4%	4.2	-2.5%[38.3 µM]
CC(=O)OC(C(=O)NC1CCCCC1)c1ccccc1F (stereo not drawn)	-17.2	0.9	-0.3	-10.7%	x	-7.3	-0.5%
O=C(CCc1nnc2n(Cc3ccc(Cl)cc3)c(=O)c3ccccc3n12)N1CCN(c2ccccn2)CC1	-15.0	2.4	1.6	-13.6%	-7.5%	11.3	-0.2%
COC(=O)c1ccccc1S(=O)(=O)N1CCC(C(=O)N(C)CCOc2ccccc2)CC1	-7.0	x	1.4	x	x	8.4	-0.2%
C[C@H](CO)N1C[C@H](C)[C@@H](CN(C)S(=O)(=O)c2ccccc2F)Oc2ncc(C#Cc3cccnc3)cc2C1=O	29.2	x	0.1	x	-3.5%	x	1.9%
CCOC(=O)c1cnn(-c2ccccc2)c1-n1cccc1C(=O)C(=O)N(CC)CC	-5.6	-1.2	1.0	-13.3%	-0.7%	0.4	-3.2%
CC(C)(CNC(=O)c1cccc(NS(=O)(=O)c2ccc(Br)cc2)c1)N1CCOCC1	5.3	x	-0.1	9.4%	1.1%	-1.9	4.7%
Cc1csc(NC(=O)C2CC(=O)N(Cc3ccco3)C2)n1 (stereo not drawn)	-4.0	1.5	0.0	-7.4%	u	14.7	-0.6%
O=C(Nc1ccc(Br)cc1F)c1ncoc1-c1ccco1	-19.7	x	-0.5	x	2.7%	x	3.6%
(next part)
SMILES	TRPML1 blocker	Menin MLL FP FL	TRPML1 agonist	Sfp PPTase inh	ClpP mod	TRPV1 potentiator	PINK1 expr mod
CN1CCCC1=Nc1ccccc1	-5.6	x	-0.2	x	0.8%	x	-0.6%
Cc1ccc(N2C(=O)CS/C2=C(\C(Cl)=C(Cl)Cl)[N+](=O)[O-])cc1	11.6	14.3	0.6	-28.0%	-16.5%	4.7	-5.3%[38.3 µM]
COc1ccc(C)c2sc(N(CCN(C)C)C(=O)c3cccc(N4C(=O)CCC4=O)c3)nc12	-8.0	x	0.0	x	-2.9%	7.1	-3.1%
O=[N+]([O-])c1ccc(Oc2ccc(-c3nnco3)cc2)c(Cl)c1	49.2	1.7	0.2	4.9%	x	-8.3	1.0%
O=C(NCCS(=O)(=O)NCC1CCCO1)c1ccccc1 (stereo not drawn)	-8.6	x	0.8	x	x	-0.4	1.6%
COc1ccc(CCNC(=O)CSc2ccc(-c3ccccc3)nn2)cc1	x	0.3	x	-2.8%	x	17.8	x
